# Screening data as filed in PubChem BioAssay.
# NPYLR7 agonist: activates Aedes aegypti NPYLR7 receptor. AID 1259423. activation, % at 10 µM. HEK293T NPYLR7/Galpha15, GCaMP6s calcium fluorescence. hit rate 0.15% among 270,000; in the data active = activation above about 40%;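 note: 0% = vehicle and 100% = reference agonist at the receptor; some compounds past the cut are filed as inactive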
# NPYLR7 agonist max-min: also measured in NPYLR7 agonist; calls as there; activation, %; measured here: Max-Min RFU normalised activation; some inactives read as strong as hits;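 span of the calcium signal over five minutes; 0% = vehicle and 100% = native peptide agonist; compound fluorescence can raise it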
# Active calls of the source: *; & = joins results of further samples. Some of the compounds tested; rates above refer to the full screens.
# Start of the listing, in advance, 2 compounds:
SMILES,NPYLR7 agonist,NPYLR7 agonist max-min
COCC(=O)Nc1c(-c2ccc(OC)cc2)nc2ccccn12,-7,2
O=C(CNC(=O)c1ccccc1)N=Nc1c(O)n(CCc2ccccc2)c2ccccc12,0,-4

# This part in full (from the top)
SMILES,NPYLR7 agonist,NPYLR7 agonist max-min
COCC(=O)Nc1c(-c2ccc(OC)cc2)nc2ccccn12,-7,2
O=C(CNC(=O)c1ccccc1)N=Nc1c(O)n(CCc2ccccc2)c2ccccc12,0,-4
CCCOc1ccc(C(=O)NCCCOc2cccc([N+](=O)[O-])c2)cc1,-6,-15
C=CCNC(=S)NNc1ccc(S(N)(=O)=O)cc1,-9,-15
CCC(C)Sc1ccc(NC(=O)c2ocnc2C)c(C(F)(F)F)c1 (stereo not drawn),6,370
O=c1[nH]c(=S)[nH]c2c1cnn2Cc1ccccc1,3,2
O=C(c1ccc2c(c1)OCCO2)C1CCN(C(=O)/C=C/c2cccc([N+](=O)[O-])c2)CC1,-2,-2
O=C(Nc1ccc(F)c(F)c1)c1cc(=O)c(OCc2ccccc2)c[nH]1,5,1
O=S(=O)(NCCOc1ccc2nnc(-c3ccccc3)n2n1)c1ccccc1,-4,-5
C=CCN1C[C@@H]2C[C@@H](C(N)=O)N(C(=O)c3cccc(OC)c3)c3cccc(c32)S1(=O)=O,-1,2
O=C(c1cc2c(s1)-c1ccccc1CC2)N1CCCCC1,5,3
Cc1csc(N2CCN(C3CCOC3=O)CC2C)n1 (stereo not drawn),3,2
CCN(CC)c1ncccc1CNC(=O)C1COc2ccccc2O1 (stereo not drawn),1,-2
Cc1ccccc1Cn1nc2c(=O)n(-c3ccc(Br)cc3)ccn2c1=O,11,8
O=C(NS(=O)(=O)c1ccccc1Br)c1ccc(NC(=O)C2CC2)cc1,5,7
Cc1nccn1CCC(=O)N1CCCC(C(=O)Nc2ccccc2Oc2cccnc2)C1 (stereo not drawn),3,1
Cc1ccc(-c2ccc(Nc3ccc(F)c(Cl)c3)nn2)cc1S(N)(=O)=O,-14,-21
O=S(=O)(NC(c1ccccc1)c1ccncc1)c1ccccc1F (stereo not drawn),-1,-3
COCCNC(=O)[C@@]1(OCc2cccc(OC)c2)CC(OCc2c(F)cccc2F)[C@H](O)[C@H](O)C1 (stereo partly drawn),5,15
C=CCN(CC#Cc1ccccc1)Cc1cc(C)[nH]n1,0,-3
O=C(CSc1ccccn1)N1CCC2(CCCN(CC3CCCCC3)C2)C1 (stereo not drawn),7,2
CCC(=O)N1CCc2cc(OC)c(OC)cc2C1c1ccccc1Cl (stereo not drawn),17,5
O=C(CCl)Nc1sc2c(c1C(=O)c1ccccc1)CCCC2,-3,-4
CS(=O)(=O)Nc1ccc([N+](=O)[O-])cc1Oc1ccccc1,2&-5&-1&3,-3&-10&-5&-26
N#Cc1c(N)n(CCc2ccc(Cl)cc2Cl)c2nc3ccccc3nc12,-5,-12
CCCOc1ccc(S(=O)(=O)NCc2ccc3c(c2)OCO3)cc1,7,6
O=C(O)c1ccc(NC(=O)c2cc3cc(Cl)ccc3oc2=O)cc1,-6,-15
Cc1cn2c(C=C3N=C(c4cccc(F)c4)OC3=O)c(C)nc2s1,1,-2
CCCOc1cccn2c(N(C)C(=O)Nc3ccccc3OC)c(CC)nc12,-13,-17
COCCNC(=O)C(C)SCc1coc(-c2ccc(Cl)cc2)n1 (stereo not drawn),2,1

# Next part
SMILES,NPYLR7 agonist,NPYLR7 agonist max-min
COc1cccc2c1N(CC(=O)Nc1ccc(N3CCCC3)cc1)CCC2,6,4
O=C(c1ccccc1)c1ccc2c(c1)N=C1CCCC(=O)C1C(c1ccc([N+](=O)[O-])cc1)N2 (stereo not drawn),-12,-11
O=C(NCC1CCCO1)C1(c2ccnc(Nc3ccc4c(c3)OCCO4)c2)CC1 (stereo not drawn),10,32
CCNC(=O)NC(=O)Cn1cc(C(F)(F)F)ccc1=O,-1,-6
CCCCOC(=O)C(C#N)=Cc1ccc(O)c(OC)c1,9,8
CCOC(=O)N1CCc2c(sc(N)c2-c2nc3ccccc3s2)C1,1,-2
O=C(c1cn(Cc2ccc(Cl)cc2)nn1)N1CCCCCCC1,0,-1
CCc1ncn(C)c1NC(=O)CCc1ccc(C)cc1C,1,0
COc1cc(OC)cc(C(NC(=O)c2ccc(Br)cc2)c2nccn2C)c1 (stereo not drawn),3,1
CCCNC(=O)O[C@@H]1CC[C@]2(C)C(CC[C@@H](O)[C@H]2CC(=O)N2CCC(C)CC2)[C@]1(C)CO (stereo partly drawn),-6,-14
Cc1nn2c3ccccc3n(C)c2c1C(=O)C(Cl)(Cl)Cl,-7,-12
CCc1cc(=O)oc2cc(Oc3nc(CN4CCOCC4)nc4sc(C)c(C)c34)ccc12,-1,23
Cc1ccsc1[C@@H]1CCN(c2nccc(CCC(F)(F)F)n2)C[C@H]1O,12,6
Nc1cc(=O)[nH]c(SCC(=O)N(Cc2cccs2)c2ccc3c(c2)OCCO3)n1,0,20
CCOC(=O)C1CCCN(C(=O)c2coc(CN(Cc3ccccc3)Cc3ccccc3Cl)n2)C1 (stereo not drawn),19,12
CC1CN(c2nc(N)c([N+](=O)[O-])c(NCc3ccco3)n2)CC(C)O1 (stereo not drawn),2,3
Cc1ccc(-n2ncc3c2CC(C)(C)CC3NC(=O)c2ccccn2)cc1 (stereo not drawn),-8,-9
O=C(CCc1ccc(S(=O)(=O)N2CCCC2)cc1)NC12CC3CC(CC(C3)C1)C2,15,11
CCOC(=O)c1nn(-c2ccccc2C)c(=O)cc1N1CCN(c2cccc(Cl)c2)CC1,6,3
COc1cccc(CSc2nc(C)c(CC(=O)N3CCC(C(N)=O)CC3)c(=O)[nH]2)c1,-7,-13
CC(=O)c1ccc(NCC(=O)Nc2cc3c(cc2Br)OCCO3)cc1,0,-4
CCc1nc2c3ccccc3ncn2n1,-3,8
CC(Sc1nnnn1C1CC1)C(=O)Nc1ccccc1Sc1ccccc1 (stereo not drawn),-5,-4
COc1ccc(-c2onc3c2CCC3)cc1NC(=O)c1ccc(SC(F)(F)F)cc1,3,1
CC(CC(=O)N1C(C)CC2CCCCC21)NC(=O)c1ccccc1 (stereo not drawn),5,1
COc1cccc(-c2cc(C(=O)N3CCN(c4cccc(Cl)c4)CC3)nc3cc(C(C)(C)C)nn23)c1,-10&20,-7&26
O=C(Nc1ccc(N2CCN(C(=O)c3cccnc3Cl)CC2)nc1)c1ccc(F)cc1,-4,7
Cc1cccnc1NC(=O)C1CCCN(c2ccc(-c3ccccc3)nn2)C1 (stereo not drawn),-12,-15
Cc1ccc(C(=O)Cn2cnc3sccc3c2=O)s1,-3,-1
CCC(C)CNC(=O)C(C1CCCC1)N1CCN(C(=O)c2ccc(Cl)cc2)CC1 (stereo not drawn),-9,-1

# Complete entries as entered above. Values in the order: NPYLR7 agonist, NPYLR7 agonist max-min
# Entry for CCNC(=O)NC(=O)Cn1cc(C(F)(F)F)ccc1=O : -1, -6
# Entry for CCOC(=O)C1CCCN(C(=O)c2coc(CN(Cc3ccccc3)Cc3ccccc3Cl)n2)C1 (stereo not drawn) : 19, 12
# Entry for CC1CN(c2nc(N)c([N+](=O)[O-])c(NCc3ccco3)n2)CC(C)O1 (stereo not drawn) : 2, 3
# Entry for Cc1cccnc1NC(=O)C1CCCN(c2ccc(-c3ccccc3)nn2)C1 (stereo not drawn) : -12, -15

# Some of these compounds in order of count of non-hydrogen atoms, rising.
SMILES,NPYLR7 agonist,NPYLR7 agonist max-min
CCCCOC(=O)C(C#N)=Cc1ccc(O)c(OC)c1,9,8
CC(=O)c1ccc(NCC(=O)Nc2cc3c(cc2Br)OCCO3)cc1,0,-4
CCOC(=O)C1CCCN(C(=O)c2coc(CN(Cc3ccccc3)Cc3ccccc3Cl)n2)C1 (stereo not drawn),19,12

# Later entries.
SMILES,NPYLR7 agonist,NPYLR7 agonist max-min
COc1c(-c2coc3cc4c(cc3c2=O)CC(OC(C)=O)C(C)(C)O4)ccc2c1C=CC(C)(C)O2 (stereo not drawn),0,-5
COc1ccc(S(=O)(=O)N(CC(=O)NCc2cccnc2)c2ccc(C)cc2)cc1OC,-4,-9
Cc1ccc2cc(CN3CCn4cccc4C3c3ccccn3)c(=O)[nH]c2c1 (stereo not drawn),2,-1
Cc1cc(C)cc(N2CCN(c3nc(C)nc4c3CCNC4)CC2=O)c1,4,3
Fc1ccc(N=Cc2ccc[nH]2)cc1,5,2
C[C@@H](NC(=O)c1ccccc1NCC(=O)O)c1ccccc1,8,7
O=C(NCCC1CN(Cc2cnc[nH]2)CCO1)Nc1ccccc1 (stereo not drawn),0,-3
COc1nn(C)cc1-c1n[nH]c(=S)n1C,-1,-2
O=C(c1ccc([N+](=O)[O-])o1)N1CCC(n2c(=O)oc3ccc(Cl)cc32)CC1,28,27
C#CCOCC(O)CN(Cc1ccccc1Cl)CC1CC(c2ccc(F)cc2)=NO1 (stereo not drawn),-2,0
O=C(c1ccc(CSc2nc(-c3ccccc3)cc(N3CCN(c4ccccc4Cl)CC3)n2)cc1)N1CCCC1,7,14
C=C(C(=O)OC)C1C(O)CC2(C)C(O)CCC(O)(CO)C2C1O (stereo not drawn),-2,-12
CCc1ccc(C2CCCN2C(=O)c2cccc3c2OCC(=O)N3)o1 (stereo not drawn),-24,-25
Nc1nnc(-c2ccccc2I)s1,-1,-2
CC(C)CC1NC(=O)c2ccccc2N(CC(=O)NCCCn2ccnc2)C1=O (stereo not drawn),13,11
CC(=O)C1=C(c2ccc(Br)cc2)N(C(C)=O)n2c(nnc2-c2ccc(C)cc2)S1,6,3
Cc1nc(C2CC2)nc2sc(C(=O)Nc3cccc(C#N)c3)c(N)c12,9,2
CCn1c(C)c(C(=O)CN(CCC(C)C)S(=O)(=O)c2c(C)cc(C)cc2C)c(C)c1C(=O)OC,-11,-2
CCC(C(=O)O)n1nnc(-c2ccsc2)n1 (stereo not drawn),0,-3
Cc1cc(Oc2cc(Cl)ncn2)ccc1Cl,17,22
CC(C)N(CC(=O)Nc1cc(-c2ccccc2)nn1-c1ccccc1Cl)C(=O)c1cc(Cl)cc(Cl)c1,17,15
COc1ccc(OCCCN2C(=O)C3(CC(=O)N(Cc4ccccc4)C3=O)c3cc(C)ccc32)cc1 (stereo not drawn),22,15
CCCCc1ccc(C(=O)NC(C(=O)Nc2nnc(-c3cccc(Cl)c3)s2)C(C)CC)cc1 (stereo not drawn),14,13
CC(=O)c1cc2ncc(C(=O)N3CCN(c4cc(Cl)ccc4C)CC3)cc2[nH]1,-1,-2
Cc1cccc(NC(=O)c2ccccc2[N+](=O)[O-])n1,17,10
COc1cc(-c2nc3cc(C)ccn3c2NC(C)(C)CC(C)(C)C)ccc1OC(=O)c1cccc(F)c1,7,4
CCC(C)NC(=O)c1coc(CN(CCN2CCOCC2)Cc2cc(OC)ccc2OC)n1 (stereo not drawn),11,33
Cc1cc(C2CCC2)nc(N(C)CCc2ccccn2)n1,-5,-12
NC(=O)C1CCCN(Cc2cc(F)cc3c2OCOC3)C1 (stereo not drawn),15,14
COC(=O)c1ccc(C2CCN(C(=O)CN3C(=O)C(Oc4ccccc4)C3c3ccncc3)CC2)cc1 (stereo not drawn),4,3
